StopGo reporter = High Throughput Screening for Foot and Mouth Disease Virus Antivirals; AID 1159524, 2015; human cells with a luciferase reporter of 2A StopGo recoding; control for the full effect not named in the record; 410,000 compounds, 1.2% hits; Potency, µM (highest dose often 57.9 µM), for the others: top-dose signal change, negative = less light; active = well fitted falling curve with a large enough effect; inconclusive = small, poorly fitted or top-dose-only effect; inactive = no such curve, though single readings can be large or run the other way; tested in HEK293T cells; also: % is scaled to controls: 0 for no effect and ±100 for the full control effect; nearly all actives have a fitted effect of over 45% in size; luciferase light after 4 h
RE007 growth inh = qHTS Assay for Inhibitors of the HIV-1 protein Vpr; S. pombe RE007 Vpr strain, BacTiter-Glo ATP luminescence, 24 h; control for the full effect not named in the record; Potency, µM (doses to about 92.2 µM), for inactives: top-dose activity change, negative = less growth; AID 651644, 2012; 360,000 compounds, 0.21% hits; active = well fitted falling curve with a large enough effect; inconclusive = small, poorly fitted or top-dose-only effect; inactive = no such curve, though single readings can be large or run the other way;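 also: % is scaled to controls: 0 for no effect and ±100 for the full control effect; nearly all actives have a fitted effect of over 50% in size; the assay follows cell death caused by Vpr and the record does not say whether a fall means rescue or toxicity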
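Fission yeast RE007 carrying one integrated HIV-1 vpr copy, seeded at OD 0.01 in PMG+AL medium with 23 nL pinned compound. Grown 24 h at 30 degrees; viability read by BacTiter-Glo luminescence after 5 min.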
SARS PLpro yeast = qHTS of Yeast-based Assay for SARS-CoV PLP | S. cerevisiae expressing SARS-CoV PLpro, growth rescue; control for the full effect not named in the record | Potency, µM (series often up to 32.9 µM), without a hit: top-dose activity, positive = growth rescue | 330,000 compounds, 0.19% hits; active means well fitted rising curve with a large enough effect; inconclusive means small, poorly fitted or top-dose-only effect; inactive means no such curve, though single readings can be large or run the other way; also: 0% is about no effect; nearly all actives have a fitted effect of over 55% in size; growth read by luminescence after 48 h
Starred values were filed as active, the others as inactive; ? = inconclusive; [ ] = another dose, or the depositor's remark. Potency is read from the fitted curve at half-maximal effect. An excerpt; count on the stated rates, not on these rows.

Structure | RE007 growth inh | StopGo reporter | SARS PLpro yeast
CCC(CO)NCC(O)COCc1ccc2c(c1)OCO2 (configuration not stated) | -2% | 1% | 2%
C[C@H](CO)N1C[C@H](C)[C@@H](CN(C)C(=O)Nc2ccc(C(F)(F)F)cc2)Oc2ccc(NC(=O)Nc3ccccc3)cc2C1=O | -12% | -22% | 0%
O=C(O)c1sccc1S(=O)(=O)N1CCOCC1 | -15% | -3% | 0%
CC[C@]1(C(=O)OC)[C@H]2C(=O)N(Cc3ccccc3)C(=O)[C@H]2[C@H]2CN=C(SCc3ccc(C#N)cc3)N21 | -7% | 0% | 2%
CC1CCCCC12NC(=O)N(CC(=O)N1CCN(c3ccccc3)CC1)C2=O (configuration not stated) | -1% | 24% | 2%
CCN(CC(=O)Nc1c(F)cccc1F)C(=O)c1nc2nccc(C)n2n1 | -18% | 0% | -4%
COC(=O)c1ccccc1NC(=S)N1CCN(c2ccccn2)CC1 | -21% | 29% | -4%
Cc1ccc(S(=O)(=O)N2[C@@H](c3cccc(Cl)c3)C(C(=O)O)=CC[C@H]2c2cccc(C)c2)cc1 | -3% | -13% | 0%
CCOc1ccc(CO/N=C/c2c(C)[nH]c(=O)[nH]c2=O)cc1 | 0% | -19% | 0%
Cc1ccc(C2CCN(C(=S)NC(C)(C)C)C2)cc1 (configuration not stated) | -23% | 47%[activator] | 8%
CCCCN(CCCC)Cc1ccc(C(=O)NN)o1 | -18% | 0% | -2%
O=C(Cc1ccc2c(c1)OCCO2)N/N=C/c1ccco1 | -1% | 23% | 6%
O=S(=O)(c1cccc(Cn2nnc(-c3ccccc3)n2)c1)N1CCOCC1 | -16% | ? | -2%
COc1ccc(S(=O)(=O)N2CCN(C(=O)C3CC3)CC2)cc1Br | -5% | -14% | -1%
COc1ccccc1-c1nnc(SCC(=O)NNC(=O)c2ccccc2F)n1C | -6% | -13% | -9%
COCCN(CC(=O)Nc1cccc(C)c1C)C(=O)c1cc(S(=O)(=O)N2CCCC2)ccc1C | 4% | 0% | 2%
COc1ccc(S(=O)(=O)NN(C)c2ncc(C(F)(F)F)cc2Cl)cc1 | -7% | -14% | -11%
CCOc1ccc(NC(=O)CN(C)C(=O)c2cc3c(s2)CCC(C)C3)cc1OCC (configuration not stated) | 2% | -24% | 4%
O=C(Nc1ccc(NC(=O)c2ccccc2F)cc1)c1cccs1 | 8% | 69%[activator] | 7%
CCCCN1C(=N)N([C@@H](CCC)CN2CCC[C@H]2CN2C(N)=NC[C@H]2C(C)C)C[C@H]1[C@H](C)CC | -11% | -16% | -3%
COc1ccccc1C1=CC(=O)C[C@H](c2ccc(F)cc2)C1 | -16% | 2% | 4%
O=C(Nc1cccc(S(=O)(=O)N2CCCC2)c1)c1cccc(S(=O)(=O)N2CCOCC2)c1 | 0% | -17% | -2%
Cc1ccnc(NC(=O)c2ccc(Cl)c(S(=O)(=O)N3CCCCC3)c2)c1 | 1% | -13% | -5%
COc1ccc2sc(-c3ccc(N(C)C)cc3)c(C#Cc3cncn3C)c2c1 | -7% | 0% | 1%
O=C(COC(=O)c1c(F)cccc1Cl)NC(=O)Nc1ccc2c(c1)OCCO2 | -6% | 23% | 1%
COc1cc(C(=O)NNC(=O)c2ccc(F)cc2)ccc1OCC(=O)N1CCOCC1 | 17% | -1% | -2%
COc1ccc(Cl)cc1NC(=O)CN(C)C(=O)CCc1nc2ccccc2c(=O)[nH]1 | -1% | 1% | 5%
CC(C)(C)OC(=O)NCc1ccc(NC(=O)c2nc[nH]c2C(=O)NCCNC(=O)c2[nH]cnc2C(=O)Nc2ccc(CNC(=O)OC(C)(C)C)cc2)cc1 | 17% | ? | -16%
O=C(C[C@H]1C/C=C\CC[C@@H](Cc2ccc(F)cc2)C(=O)OC[C@H]2CCCN2C1=O)N[C@H](CO)Cc1ccccc1 | -13% | -27% | 0%
O=C1NC(=O)N(Cc2ccccc2Cl)C(=O)/C1=C/c1cccs1 | 7% | 22µM* | 9%
N#Cc1ccccc1NC(=O)COc1ccccc1C(=O)Nc1ccccc1 | -10% | 6% | -5%
O=C(NCc1ccccc1Cl)C1CCCO1 (configuration not stated) | 15% | 15% | 0%
Cc1ccc(C)c(NC(=O)CN(C)C(=O)C2COc3ccccc3O2)c1 (configuration not stated) | 9% | -11% | -4%
CCOC(=O)/C(C#N)=C/Nc1ccccc1NS(=O)(=O)c1ccc2c(c1)OCCO2 | -2% | 11% | -3%
Cc1ccc(S(=O)(=O)N2[C@@H](c3ccc(Br)cc3)C(C(=O)O)=CC[C@H]2c2ccc3c(c2)OCO3)cc1 | -12% | -14% | 0%
COc1ccc(CSc2ccc(-c3nc4ccccn4c3NCc3ccccc3)cc2OC)cc1 | -7% | ? | 0%
CCN1C(=O)[C@H]2[C@@H](c3ccc(-c4ccc(OC)cc4)cc3)N[C@@](CC(C)C)(C(=O)OC)[C@H]2C1=O | -16% | -24% | 6%
COc1cc(NC(=O)[C@@H]2CCCN(S(=O)(=O)c3cccc4cccnc34)C2)cc(OC)c1OC | 4% | ? | 7%
C=CCn1c(SCC(=O)N(CC)C2CCS(=O)(=O)C2)nc2sc3c(c2c1=O)CCC3 (configuration not stated) | -20% | -10% | 0%
CN(Cc1ccc(Cl)c(Cl)c1)C(=O)C1CSC2(C)CCC(=O)N12 (configuration not stated) | 2% | -17% | 0%
FC(F)(F)c1cc(CCN2CCNC[C@@H]2CC2CCCCC2)cc(C(F)(F)F)c1 | -7% | 0% | 5%
O=C(CN1C(=O)c2ccccc2C1=O)OCc1nc2ccsc2c(=O)[nH]1 | 3% | -16% | -3%
CC(=O)c1c(C)[nH]c(C(=O)OCC(=O)N2CCc3ccccc3C2)c1C | -1% | -28% | -4%
Cc1c(Cl)cnc(NC(=O)COC(=O)[C@H](C)NC(=O)c2ccccc2)c1Cl | -9% | -3% | -1%
CCN(C(=O)COC(=O)c1[nH]c(C)c(C(C)=O)c1C)c1c(N)n(Cc2ccccc2)c(=O)[nH]c1=O | -7% | -20% | -4%
CCCCNC(=O)CN1C(=O)NC(CCc2ccccc2)C1=O (configuration not stated) | 14% | -4% | -2%
O=C1C=C(c2cccc(CO)c2)C[C@@H](c2ccc(F)cc2)C1 | 1% | -13% | -9%
COc1ccc(-c2ccc3oc(-c4ccsc4)cc(=O)c3c2)cn1 | 17% | 9% | -8%
C=C(CC[C@@H](O)C(C)(C)O)[C@H]1CC[C@]2(C)[C@@H]1CCC1[C@@]3(C)CCC(=O)C(C)(C)C3CC[C@]12C (some centres not stated) | 8% | -29% | 7%
CC(C)(C)NC(=O)CN(Cc1cccs1)C(=O)CN1C(=O)C(=O)c2ccccc21 | -19% | -8% | 2%

As entered above.
Under SARS PLpro yeast, O=C(Nc1ccc(NC(=O)c2ccccc2F)cc1)c1cccs1 reads 7%
Under StopGo reporter, CC1CCCCC12NC(=O)N(CC(=O)N1CCN(c3ccccc3)CC1)C2=O (configuration not stated) reads 24%

Additional records follow:
Structure | RE007 growth inh | StopGo reporter | SARS PLpro yeast
COc1cccc(C(=O)C[n+]2cccc3cc(OC)ccc32)c1 | 2% | -8% | -1%
COc1cc(-c2nc3cc(C)ccn3c2NC2CCCCC2)ccc1-c1ccc(C(C)=O)cc1 | -2% | ? | -13%
COc1ccc(Cl)cc1NC(=O)COC(=O)c1ccc(C)o1 | 1% | -4% | -6%
COc1cc(OC)c(N2CC(C(=O)NCCC3=CCCCC3)CC2=O)cc1Cl (configuration not stated) | -5% | 7% | 2%
O=C(NCC1(N2CCCCC2)CCCCC1)c1cccc(S(=O)(=O)Nc2ccc(F)cc2)c1 | -16% | 11% | -6%
C[C@H](CO)N1C[C@H](C)[C@@H](CN(C)S(=O)(=O)c2cccs2)Oc2c(NC(=O)C3CCCCC3)cccc2C1=O | -15% | 46%[activator] | -1%
COc1ccc(S(=O)(=O)N2CCCCC2)cc1NC(=O)Cn1cnc2ccccc2c1=O | 22% | -14% | 1%
CC1CC(C)(C)CC2(C1)NC(=O)N(CC(=O)Nc1c(F)cccc1F)C2=O (configuration not stated) | 8% | -10% | 0%
Cc1ccc(C(=O)OC(C)C(=O)NC2CCCCC2)cc1S(=O)(=O)N1CCCCC1 (configuration not stated) | 24% | -11% | 1%
CNCCNC[C@H](Cc1cccc2ccccc12)NCCc1ccccc1 | -22% | -20% | -5%
O=S(=O)(Nc1cc(S(=O)(=O)N2CCOCC2)ccc1N1CCOCC1)c1ccc2c(c1)OCCO2 | 16% | 0% | 0%
COC(=O)c1ccc(-c2c(-c3ccccc3)ncc3cc(OC)c(OC)cc23)cc1 | 0% | -19% | 7%
COc1ccc(S(=O)(=O)Nc2cccc3c2O[C@H](CN(C)Cc2ccc(Oc4ccccc4)cc2)[C@@H](C)CN([C@H](C)CO)C3=O)cc1 | -5% | -7% | -37%
C=CCNc1ccccc1S(=O)(=O)NCc1ccccc1 | 12%[18.4 µM] | 93%[activator] | -7%
O=C(CN1C(=O)c2cccc([N+](=O)[O-])c2C1=O)NNC(=O)c1ccc(F)cc1 | 5% | 1% | -2%
CCOc1ccc(NC(=O)CN(C)C(=O)C2CC(=O)N(Cc3ccco3)C2)cc1OCC (configuration not stated) | 4% | -10% | 0%
N#CC1(NC(=O)CSc2nncn2-c2ccccc2F)CCCC1 | 8% | 3% | -3%
COc1cc(C)c(NC(=O)C2CCN(S(=O)(=O)c3cccs3)CC2)cc1OC | 0% | -17% | 2%
Cc1ccc(C(=O)CCC(=O)Nc2ncccc2C)cc1 | -8% | 28% | -9%
N#Cc1ccc(OCC(=O)NNC(=O)C2CCCCC2)cc1 | 9% | -8% | 4%
COC(=O)c1ccccc1NC(=O)CCCn1nc([N+](=O)[O-])c(Br)c1C | 10% | 0% | -1%
O=C(NC[C@H]1CCCO1)c1cccc2c1C(=O)c1ccc(-c3ccc(F)cc3OCc3ccccc3)cc1S2(=O)=O | 16% | ? | -2%
CC(C)(C)OC(=O)N1CCN(C(=O)c2ncn(Cc3ccccc3)c2C(=O)N2CCN(C(=O)OC(C)(C)C)CC2)CC1 | -6% | 10% | -13%
Cn1c(SCC(=O)NC2CCCC2)nnc1C(F)(F)F | -12% | -29% | 1%
O=C1CCC(C(=O)OC(C(=O)Nc2cc(Cl)cc(Cl)c2)c2ccccc2)=NN1 (configuration not stated) | -7% | 46%[activator] | 0%
CCNc1sc(C(=O)OCC)c(N)c1C#N | 0% | 11% | -1%
Cc1noc(C)c1NC(=O)Nc1ccc2c(c1)C(=O)N([C@H](C)CO)C[C@H](C)[C@@H](CN(C)S(=O)(=O)c1ccccc1)O2 | 10% | -14% | -11%
O=C(Oc1cccc(C(=S)N2CCCCC2)c1)c1ccccc1 | 4% | -4% | 1%
COc1cccc(CNc2ccc(S(=O)(=O)N3CCCC3)cn2)c1 | 18% | -11% | -4%
O=C(COc1cccc(F)c1)Nc1nc(-c2cccnc2)cs1 | 0% | -21% | -2%

Entries shown so far that contain bromine (three):
Structure | RE007 growth inh | StopGo reporter | SARS PLpro yeast
COc1ccc(S(=O)(=O)N2CCN(C(=O)C3CC3)CC2)cc1Br | -5% | -14% | -1%
Cc1ccc(S(=O)(=O)N2[C@@H](c3ccc(Br)cc3)C(C(=O)O)=CC[C@H]2c2ccc3c(c2)OCO3)cc1 | -12% | -14% | 0%
COC(=O)c1ccccc1NC(=O)CCCn1nc([N+](=O)[O-])c(Br)c1C | 10% | 0% | -1%

(list continues)
Structure | RE007 growth inh | StopGo reporter | SARS PLpro yeast
COc1ccc(S(=O)(=O)N2CCN(CC(=O)NC(Cc3ccccc3)C(C)=O)CC2)cc1 (configuration not stated) | -1% | -9% | -5%
Cc1[nH]n(-c2ccc([N+](=O)[O-])cc2)c(=O)c1C=NCCN1CCN(C(=O)C(C)C)CC1 | ? | 5% | -9%
CNS(=O)(=O)c1cccc(C(=O)OCCCC(=O)c2ccccc2)c1 | 7% | ? | 3%
COc1ccc(S(=O)(=O)Nc2cccc(-c3ccc4nncn4n3)c2)cc1F | -8% | 19% | -2%
C[C@H](CO)N1C[C@H](C)[C@@H](CN(C)Cc2ccncc2)Oc2c(cccc2N(C)C)C1=O | 21% | 29% | -20%
CCc1cccc(NC(=O)CSCc2nc3sc(C)c(C)c3c(=O)[nH]2)c1 | -13% | 0% | 8%
O=S1(=O)N=C(c2ccccc2)C=C(c2ccccc2)N1 | 2% | -2% | 12%
COc1ccccc1N(CC(=O)Nc1cc(C)on1)S(=O)(=O)c1cccc(C(F)(F)F)c1 | -1% | -3% | 1%
CCN(C(=O)COC(=O)COc1ccc(Cl)c(C)c1)C1CCS(=O)(=O)C1 (configuration not stated) | -1% | -18% | 2%
CC(C)(C)OC(=O)C[C@H]1C/C=C\C[C@@H](CC(=O)NCCO)C(=O)N[C@H](C(C)(C)C)COC1=O | -6% | -29% | -4%

High-throughput results deposited in PubChem by National Center for Advancing Translational Sciences (NCATS).
